From PubChem BioAssay
Cruzain inh noDet – blocks cruzain activity in detergent-free assay | P25779 | purified cruzain, Z-FR-AMC fluorescence, no detergent | Potency, µM, inactives show max response, negative = inhibition, usual class: inhibitors | 2.3% of 200,000 active; active = well fitted curve in the direction sought with a large enough effect; inconclusive = small, poorly fitted or top-dose-only effect, or another doubt; inactive = no such curve, though single readings can be large; an effect the other way counts as inactive or inconclusive;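 also: plate controls were enzyme without inhibitor for no effect and buffer without enzyme for full effect; nearly all actives have a fitted effect of over 40% in size; top concentration of the series not given in the record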
Target sequence (P25779 123-467 limits assumed): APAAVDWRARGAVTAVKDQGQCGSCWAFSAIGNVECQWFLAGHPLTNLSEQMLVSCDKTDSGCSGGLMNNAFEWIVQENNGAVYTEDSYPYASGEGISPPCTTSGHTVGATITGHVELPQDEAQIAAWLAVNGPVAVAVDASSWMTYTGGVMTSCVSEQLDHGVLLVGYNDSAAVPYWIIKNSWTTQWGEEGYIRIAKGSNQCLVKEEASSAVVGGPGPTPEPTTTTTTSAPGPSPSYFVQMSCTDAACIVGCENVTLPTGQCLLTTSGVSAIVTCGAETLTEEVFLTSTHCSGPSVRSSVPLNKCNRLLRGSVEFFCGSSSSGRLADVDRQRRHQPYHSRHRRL
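Purified cruzain at 1.5 nM, pre-incubated 15 min with compound at room temperature in 100 mM sodium acetate pH 5.5, 5 mM DTT, 0.00005% Triton X-100. Reaction started with 2 uM Z-FR-AMC; AMC fluorescence increase over 60 s gives rate.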
Cruzain Triton – cruzain (T. cruzi) inhibition with detergent | P25779 | purified cruzain, Z-FR-AMC fluorescence, 0.01% Triton | Potency, µM, for inactives: max response, negative = inhibition, most hits filed as inhibitors | 0.43% of 200,000 active | AID 1478; active = well fitted curve in the direction sought with a large enough effect; inconclusive = small, poorly fitted or top-dose-only effect, or another doubt; inactive = no such curve, though single readings can be large; an effect the other way counts as inactive or inconclusive;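 also: plate controls were neutral wells for no effect and buffer without enzyme for full effect; nearly all actives have a fitted effect of over 40% in size; top concentration of the series not given in the record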
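Cruzain (1.5 nM) preincubated 15 min at RT with compound in 100 mM sodium acetate pH 5.5, 5 mM DTT, 0.01% Triton X-100. Reaction started with 2 uM Z-FR-AMC; AMC fluorescence (ex 360/em 450 nm) change over 60 s gave rate.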
SARS PLpro yeast – blocks SARS-CoV papain-like protease in a yeast assay. S. cerevisiae expressing SARS-CoV PLpro, growth rescue; control for the full effect not named in the record. Potency, µM (highest dose often 32.9 µM), without a hit: top-dose activity, positive = growth rescue. 0.19% of 330,000 active. AID 485353; also: 0% is about no effect; nearly all actives have a fitted effect of over 55% in size; growth read by luminescence after 48 h
MARV entry inh – blocks Marburg virus binding to or entry into cells | 1.8% of 300,000 active | Potency, µM (top dose mostly 37.8 µM), inactives show at the highest dose activity change, negative = inhibition, usual class: inhibitors | Marburg virus pseudotyped entry inhibition, cell reporter; control for the full effect not named in the record; about a third of the inactives were read at about 46 µM; active = well fitted inhibition curve with a large enough effect; inconclusive = small, poorly fitted or top-dose-only effect, or effect the other way; inactive = flat fitted curve, though single readings scatter; tested in HEK293 cells; about a fifth of its hits are not listed in these tables; also: % is scaled to controls: 0 for no effect and ±100 for the full control effect; luciferase read-out
NS1 function inh – inhibitors of influenza NS1 protein function; S. cerevisiae slowed by influenza A NS1, growth recovery by OD600; Potency, µM (series often up to 46.1 µM), without a hit: at the top dose activity, positive = more growth; 0.4% of 270,000 active; AID 2326; also: actives are rising curves; nearly all actives have a fitted effect of over 50% in size
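OD600 was taken as the measure of yeast growth restored by compound in an NS1-expressing S. cerevisiae strain. Cells had been washed out of glucose medium and diluted 1:100 into galactose -URA medium, pH 6.0.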
LASV entry inh – inhibitors of Lassa virus binding or cell entry; Lassa virus pseudotype entry inhibition, cell reporter; control for the full effect not named in the record; Potency, µM (top dose mostly 37.9 µM), for inactives: at the top dose activity change, negative = inhibition, hits mostly inhibitors; 1.2% of 300,000 active; AID 540256; active means well fitted inhibition curve with a large enough effect; inconclusive means small, poorly fitted or top-dose-only effect, or effect the other way; inactive means flat fitted curve, though single readings scatter; tested in HEK293 cells; also: % is scaled to controls: 0 for no effect and ±100 for the full control effect; nearly all actives have a fitted effect of over 50% in size; luciferase read-out
StopGo reporter – lowers the luciferase signal of an FMDV 2A StopGo reporter; human cells with a luciferase reporter of 2A StopGo recoding; control for the full effect not named in the record; Potency, µM (titrated, usually from 57.9 µM), for the others: at the highest dose signal change, negative = less light; 1.2% of 410,000 active; AID 1159524; active = well fitted falling curve with a large enough effect; inconclusive = small, poorly fitted or top-dose-only effect; inactive = no such curve, though single readings can be large or run the other way; tested in HEK293T cells; also: % is scaled to controls: 0 for no effect and ±100 for the full control effect; nearly all actives have a fitted effect of over 45% in size; luciferase light after 4 h
RE007 growth inh – less growth of the S. pombe RE007 Vpr strain; Potency, µM (highest dose often 92.2 µM), without a hit: top-dose activity change, negative = less growth; S. pombe RE007 Vpr strain, BacTiter-Glo ATP luminescence, 24 h; control for the full effect not named in the record; 0.21% of 360,000 active; active = well fitted falling curve with a large enough effect; inconclusive = small, poorly fitted or top-dose-only effect; inactive = no such curve, though single readings can be large or run the other way;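 also: % is scaled to controls: 0 for no effect and ±100 for the full control effect; nearly all actives have a fitted effect of over 50% in size; the assay follows cell death caused by Vpr and the record does not say whether a fall means rescue or toxicity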
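Fission yeast strain RE007, carrying one chromosomally integrated HIV-1 vpr copy, was seeded at OD 0.01 in PMG+AL medium with 23 nL pinned compound. After 24 h at 30 °C and 99% humidity, viability was read by BacTiter-Glo luminescence.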
The depositor's hits bear a star; & = joins results of further samples; [ ] = dose if it differs, or a comment. Unless noted, calls follow the shape of the dose curve; as a rule, active means well fitted rising curve with a large enough effect; inconclusive means small, poorly fitted or top-dose-only effect; inactive means no such curve, though single readings can be large or run the other way. Potency is read from the fitted curve at half-maximal effect. Not a hit list; any-hit rate near 4.8%.

What do the screens show for `O=C(c1ccc(Cn2c(=S)[nH]c3cc4c(cc3c2=O)OCO4)cc1)N1CCN(c2ccccc2)CC1`?
SARS PLpro yeast: -4%; MARV entry inh: -23%[46.1 µM]; LASV entry inh: -11%; StopGo reporter: -14%; RE007 growth inh: 0%

Results for COc1ccc2nc(NC(=O)c3ccc(S(=O)(=O)N4CCCC(C)C4)cc3)sc2c1 (stereo not given) ?
Cruzain inh noDet: -9%; Cruzain Triton: -0.7%; LASV entry inh: 0%[46.1 µM]; StopGo reporter: -1%

Results for Fc1ccccc1Nc1nc(NCc2ccco2)nc(N2CCOCC2)n1 ?
SARS PLpro yeast: -3%; MARV entry inh: inconclusive; NS1 function inh: -1%; LASV entry inh: 0%; StopGo reporter: -20%; RE007 growth inh: 8%

What do the screens show for `COCCCNCCOc1ccccc1-c1ccccc1`?
Cruzain inh noDet: 4%; Cruzain Triton: -1.6%; SARS PLpro yeast: -6%; MARV entry inh: -46%; NS1 function inh: 5%; LASV entry inh: -19%; StopGo reporter: -18%; RE007 growth inh: -11%

What do the screens show for `C/C(=N/NS(=O)(=O)c1ccc(Cl)cc1)c1cccc(NC(=O)c2ccncc2)c1`?
SARS PLpro yeast: 2%; MARV entry inh: 0%; NS1 function inh: -7%; LASV entry inh: -8%; StopGo reporter: 11%; RE007 growth inh: -6%

Results for c1ccc2cc(Cn3ccnc3)ccc2c1 ?
SARS PLpro yeast: -1%; NS1 function inh: -10%; StopGo reporter: -8%; RE007 growth inh: 4%

What do the screens show for `O=C(Nc1cc2ccccc2oc1=O)C1CCCCC1`?
Cruzain inh noDet: -3%; Cruzain Triton: 4.0%; SARS PLpro yeast: 1%; MARV entry inh: 2%; NS1 function inh: -7%; LASV entry inh: inconclusive; StopGo reporter: 0%; RE007 growth inh: 13%

Results for CCOC(=O)N1CCN(C(=O)c2ccc3nc4ccsc4c(=O)n3c2)CC1 ?
Cruzain inh noDet: -11%; Cruzain Triton: -8.5%; SARS PLpro yeast: 8%; NS1 function inh: 7%; StopGo reporter: -17%; RE007 growth inh: 2%

Results for CC(=O)c1ccc(N2CCN(S(=O)(=O)c3cc(-c4noc(C)n4)ccc3C)CC2)cc1 ?
Cruzain inh noDet: -15%; Cruzain Triton: 0.7%; LASV entry inh: 8%[46.1 µM]; StopGo reporter: inconclusive

Results for COC(=O)c1ccccc1NC(=O)Cn1ccnc1 ?
Cruzain inh noDet: inconclusive; Cruzain Triton: 2.4%; SARS PLpro yeast: 5%; MARV entry inh: -1%; NS1 function inh: 0%; LASV entry inh: -1%; StopGo reporter: -9%; RE007 growth inh: 19%

How did COc1ccccc1N(CC(=O)N(CC(C)C)CC(C)C)S(=O)(=O)c1cccs1 do in these assays?
SARS PLpro yeast: 0%; NS1 function inh: -2%; StopGo reporter: 36%[activator]; RE007 growth inh: 0%

Results for O=C1C(Cl)=C(N2CCC(C(=O)O)CC2)C(=O)c2ccccc21 ?
SARS PLpro yeast: -3%; NS1 function inh: 6%; StopGo reporter: 35µM*; RE007 growth inh: -24%

How did Cc1c(C(=O)N2CCCC2)c(S(=O)(=O)N2CCN(c3ccccc3F)CC2)c(C)n1C do in these assays?
SARS PLpro yeast: -6%; NS1 function inh: -6%; StopGo reporter: -3%; RE007 growth inh: 4%

What do the screens show for `CC1Sc2n(c3ccccc3[n+]2C)N=C1c1ccccc1` (stereo not given)?
Cruzain inh noDet: 7%; Cruzain Triton: -4.5%; SARS PLpro yeast: -16%; MARV entry inh: inconclusive; NS1 function inh: 0%; LASV entry inh: inconclusive; StopGo reporter: inconclusive; RE007 growth inh: -6%

What do the screens show for `O=C1NC(=O)/C(=C/c2ccc(-c3cccc([N+](=O)[O-])c3)o2)S1`?
SARS PLpro yeast: -9%; MARV entry inh: 17%; NS1 function inh: 3%; LASV entry inh: inconclusive; StopGo reporter: -13%; RE007 growth inh: -13%

Results for O=c1[nH]cnc2c1nc(SCc1ccccc1)n2C1OC(CO)C(O)C1O (stereo not given) ?
Cruzain inh noDet: -7%; Cruzain Triton: -6.9%; SARS PLpro yeast: 4%; MARV entry inh: 7%; NS1 function inh: 0%; LASV entry inh: -12%; StopGo reporter: -21%; RE007 growth inh: 11%

How did Cc1cccc(C)c1N=C1SC(CC(=O)Nc2c(C)cccc2C)C(=O)N1CCc1ccccn1 (stereo not given) do in these assays?
Cruzain inh noDet: inconclusive; Cruzain Triton: -6.8%; SARS PLpro yeast: 2%; MARV entry inh: 15%; NS1 function inh: -20%; LASV entry inh: -12%; StopGo reporter: -26%; RE007 growth inh: 1%

How did Cc1coc2c(C)c3oc(=O)c(CCC(=O)N4CCC(C(=O)NCCCC(=O)O)(c5ccccc5)CC4)c(C)c3cc12 do in these assays?
SARS PLpro yeast: 4%; NS1 function inh: 12%; StopGo reporter: -12%; RE007 growth inh: 12%

Results for O=C(CCn1c(=O)c2cccn2c2cccnc21)N1CCN(c2cccc(C(F)(F)F)c2)CC1 ?
Cruzain inh noDet: 5%; Cruzain Triton: -3.0%; LASV entry inh: -5%[46.1 µM]; StopGo reporter: inconclusive

What do the screens show for `COc1cccc(C(=O)O/N=C(\N)c2ccc([N+](=O)[O-])cc2)c1`?
Cruzain inh noDet: 12%; Cruzain Triton: 2.3%; SARS PLpro yeast: 1%; MARV entry inh: 24%; NS1 function inh: -18%; LASV entry inh: inconclusive; StopGo reporter: 60%[activator]; RE007 growth inh: 9%

How did CCOC(=O)C1CCN(c2ccc(-c3cccs3)nn2)CC1 do in these assays?
SARS PLpro yeast: -9%; MARV entry inh: 15%[46.1 µM]; NS1 function inh: -9%; LASV entry inh: 1%[46.1 µM]; StopGo reporter: -25%; RE007 growth inh: inconclusive

How did O=c1[nH]cnc2c1C(c1ccccc1)c1c(nc[nH]c1=O)O2 do in these assays?
SARS PLpro yeast: 0%; MARV entry inh: 6%[46.1 µM]; NS1 function inh: 4%; LASV entry inh: -8%[46.1 µM]; StopGo reporter: -12%; RE007 growth inh: 3%

How did CCN1c2ccccc2-n2cccc2C12CCN(C(=O)Nc1ccccc1C(F)(F)F)CC2 do in these assays?
Cruzain inh noDet: -11%; Cruzain Triton: 3.3%; LASV entry inh: 4%[46.1 µM]; StopGo reporter: -13%

How did CCOC(=O)CNC(=O)CN1C(=O)CC(c2ccco2)Sc2ccccc21 (stereo not given) do in these assays?
SARS PLpro yeast: 0%; MARV entry inh: 15%[46.1 µM]; NS1 function inh: -3%; LASV entry inh: -1%[46.1 µM]; StopGo reporter: 21%; RE007 growth inh: -14%

What do the screens show for `O=C(OCc1cnc(Cl)s1)c1cccc(Cl)c1`?
Cruzain inh noDet: 1%; Cruzain Triton: -3.9%; SARS PLpro yeast: -8%; MARV entry inh: 6%; NS1 function inh: -16%; LASV entry inh: 1%; StopGo reporter: -16%; RE007 growth inh: 10%

What do the screens show for `CN(c1ccc(C(=O)Nc2cccnc2)cc1)S(=O)(=O)c1ccc(Cl)cc1`?
SARS PLpro yeast: 0%; MARV entry inh: inconclusive; NS1 function inh: -3%; LASV entry inh: inconclusive; StopGo reporter: inconclusive; RE007 growth inh: 4%

How did COc1cccc(CNCCc2c[nH]c3ccccc23)c1OC do in these assays?
SARS PLpro yeast: 2%; MARV entry inh: 3%[46.1 µM]; StopGo reporter: 3%; RE007 growth inh: -24%

Results for COc1ccc(-c2ccc(C(=O)O)o2)c([N+](=O)[O-])c1 ?
SARS PLpro yeast: 0%; MARV entry inh: 0%[46.1 µM]; LASV entry inh: 13%[46.1 µM]; StopGo reporter: -2%; RE007 growth inh: -21%

What do the screens show for `CCS(=O)(=O)n1nc(C(=O)N2CCOCC2)nc1N`?
Cruzain inh noDet: 2%; Cruzain Triton: 4.1%; SARS PLpro yeast: -5%; MARV entry inh: 3%&3%; NS1 function inh: 2%; LASV entry inh: inconclusive; StopGo reporter: 16%; RE007 growth inh: 3%

Results for CCN(CC)S(=O)(=O)c1cc(NC(=O)COC(=O)Cn2cnc3ccccc32)ccc1C ?
Cruzain inh noDet: -8%; Cruzain Triton: -1.8%; SARS PLpro yeast: 10%; MARV entry inh: 24%; NS1 function inh: 0%; LASV entry inh: -5%; StopGo reporter: -9%; RE007 growth inh: 3%

How did CCC(C)C(=O)N[C@@H](c1ccccc1)[C@@H](O)C(=O)O[C@H]1C[C@@]2(O)[C@@H](OC(=O)c3ccccc3)C3[C@](C)(C(=O)[C@H](OC(C)=O)C(=C1C)C2(C)C)[C@@H](O)C[C@H]1OC[C@@]31OC(C)=O (stereo not given in full) do in these assays?
SARS PLpro yeast: -3%; NS1 function inh: -47%; StopGo reporter: -18%; RE007 growth inh: 0%

Results for COc1cccc(NC(=S)N(CCc2nc3cc(C)c(C)cc3[nH]2)Cc2cccnc2)c1 ?
Cruzain inh noDet: 8%; Cruzain Triton: -5.8%; SARS PLpro yeast: -5%; MARV entry inh: -5%; NS1 function inh: 0%; LASV entry inh: inconclusive; RE007 growth inh: -4%

How did Cc1c2cnn(-c3ccccc3)c(=O)c2c(C)n1CCCC(=O)NCCN1CCN(C)CC1 do in these assays?
SARS PLpro yeast: -2%; MARV entry inh: 13%[46.1 µM]; NS1 function inh: 1%; LASV entry inh: inconclusive; StopGo reporter: 7%; RE007 growth inh: 0%

What do the screens show for `CCOC(=O)Cn1c(=O)oc2cc(S(=O)(=O)Nc3cc(OCC)ccc3OCC)ccc21`?
Cruzain inh noDet: 29%; Cruzain Triton: -0.5%; SARS PLpro yeast: -4%; MARV entry inh: inconclusive; NS1 function inh: -31%; LASV entry inh: 0%; StopGo reporter: -14%; RE007 growth inh: -2%

How did Cc1ccc(NC(=O)CN2C(=O)CCc3cc(S(=O)(=O)N4CCOCC4)ccc32)cc1F do in these assays?
Cruzain inh noDet: 21%; Cruzain Triton: -2.7%; LASV entry inh: -10%[46.1 µM]; StopGo reporter: -5%
